Screens from PubChem.
TRPML1 inh = qHTS for Inhibitors of the Human Mucolipin Transient Receptor Potential 1 (TRPML1). activity change, negative = inhibition, % (concentration not given with the values). 390,000 tested, 0.02% active. TRPML1-inducible cells, Ca2+ dye fluorescence, FDSS; active compounds read low; inhibition of EC80 agonist-evoked calcium signal; in the data active means activity change below about -50%; inconclusive means about -30% to -50%; inactive means above about -30%;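 note: stimulus is agonist 54-4 at its EC80 concentration; % is set by controls: 0 for no effect and ±100 for the full control effect; the text of the record puts the active cut at -80%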
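Tet-induced TRPML1-DL cells loaded with Ca8 no-wash calcium dye were read kinetically on FDSS. Compound addition was followed by EC80 agonist 54-4 (4 uM final); inhibition was read over 110 s.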
TRPML1 ag = qHTS for Agonists of the Human Mucolipin Transient Receptor Potential 1 (TRPML1); Mucolipin-1 (Homo sapiens), Q9GZU1; TRPML1-expressing cells, Ca2+ dye fluorescence, FDSS; host cell line not named in the record; reference of the full effect not given here; activation, % (no concentration beside the values); 410,000 tested, 0.12% active; AID 624414, 2012; in the data active = activation above about 50%; inconclusive = about 30% to 50%; inactive = below about 30%; note: 0% is about no effect; the text of the record puts the active cut at 80%
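Agonist activity was taken from a 110 s kinetic Ca2+ dye read on the FDSS after pinning compounds onto TRPML1-DL cells. The cells were seeded at 1,500/well with Tet inducer, incubated about 16 h, then dye-loaded at room temperature.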
D2 potentiator = Beta-Arrestin HTS for Positive Allosteric Modulators of the Human D2 Dopamine Receptor: Potentiators; 360,000 tested, 0.23% active; AID 624464, 2012; D(2) dopamine receptor (Homo sapiens), P14416; potentiation, % (test concentration not listed); DiscoveRx D2 beta-arrestin cells, luminescence, 90 min; 100% = 57 uM dopamine signal; active = potentiation of 50% or more; inconclusive = 30% to 50%; inactive = 30% or less;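 note: compound concentration not given in the record; tested on top of an EC20 dose of dopamine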
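PathHunter D2 cells, attached overnight at 37 deg C, received compound in DMSO plus dopamine at EC20 (50 nM final) for 90 min at 37 deg C. Beta-arrestin recruitment was read as luminescence after 1 h with detection reagent at ambient temperature.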
TRPV1 potentiator = HTS Assay for Compounds that Act as Potentiators of the Vanilloid Receptor 1; Transient receptor potential cation channel subfamily V member 1 (Homo sapiens), Q8NER1; TRPV1-expressing cells, Fluo-8 calcium influx, capsaicin EC20 potentiation; host cell line not named in the record; control for the full effect not named in the record; potentiation, % at 8.33 µM; 320,000 tested, 0.02% active; AID 540277, 2011; active means potentiation above 80%; inconclusive means 30% to 80%; inactive means below 30%; note: 0% is about no effect
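Cells expressing TRPV1 were dye-loaded with Fluo-8 and read kinetically: 10 s baseline, 3 min after compound (agonist portion), then 2 min after EC20 capsaicin (allosteric enhancer portion). Calcium-bound dye fluorescence at 480/520 nm.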
Six1-Eya2 blk = qHTS Assay for Inhibitors of the Six1/Eya2 Interaction | 360,000 tested, 0.56% active | activity change, % (test concentration not listed) | AID 651725, 2012 | AlphaScreen GST-Six1/His-Eya2 binding, biochemical; active compounds read low; control for the full effect not named in the record | Homeobox protein SIX1 (Homo sapiens) + Protein phosphatase EYA2 (Homo sapiens), …; in the data active = activity change below about -65%; inconclusive = about -30% to -65%; inactive = above about -30%; note: % is set by controls: 0 for no effect and ±100 for the full control effect
Target sequence (O00167 whole entry, looked up): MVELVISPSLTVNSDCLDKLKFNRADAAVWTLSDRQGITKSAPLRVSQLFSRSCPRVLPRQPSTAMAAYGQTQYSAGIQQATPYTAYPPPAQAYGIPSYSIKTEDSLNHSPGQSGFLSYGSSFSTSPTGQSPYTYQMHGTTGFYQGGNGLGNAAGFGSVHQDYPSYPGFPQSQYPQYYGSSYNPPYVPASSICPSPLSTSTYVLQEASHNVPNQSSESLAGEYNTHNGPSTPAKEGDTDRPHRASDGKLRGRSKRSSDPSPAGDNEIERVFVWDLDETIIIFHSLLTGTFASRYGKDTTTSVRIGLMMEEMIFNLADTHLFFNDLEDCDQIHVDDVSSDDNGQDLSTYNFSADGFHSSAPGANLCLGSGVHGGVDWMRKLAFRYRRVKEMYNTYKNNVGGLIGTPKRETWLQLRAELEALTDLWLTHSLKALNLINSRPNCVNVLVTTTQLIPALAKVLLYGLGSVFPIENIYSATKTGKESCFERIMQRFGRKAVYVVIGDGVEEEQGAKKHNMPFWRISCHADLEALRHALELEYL
Target sequence (Q15475 whole entry, looked up): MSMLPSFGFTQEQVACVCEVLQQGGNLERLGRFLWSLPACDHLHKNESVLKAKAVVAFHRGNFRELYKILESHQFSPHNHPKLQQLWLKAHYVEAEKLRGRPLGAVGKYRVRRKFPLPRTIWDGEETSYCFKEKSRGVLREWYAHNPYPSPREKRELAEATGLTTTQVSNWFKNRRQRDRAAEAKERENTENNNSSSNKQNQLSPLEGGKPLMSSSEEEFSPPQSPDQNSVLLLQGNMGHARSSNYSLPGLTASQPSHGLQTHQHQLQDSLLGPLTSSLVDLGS
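AlphaScreen luminescence read after one hour at 37 °C in darkness. Pin-transferred compounds met GST-Six1 and His-Eya2 protein (5X stock 250 nM/500 nM) plus glutathione donor and Ni-chelate acceptor beads (5X, 50 ug/mL).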
CtBP-E1A blk = qHTS Assay for Inhibitors of the CtBP/E1A Interaction. activity change, % (no concentration beside the values). AlphaScreen GST-E1A/His-CtBP binding, 1536-well; active compounds read low; control for the full effect not named in the record. AID 651724, 2012. 340,000 tested, 0.49% active. CtBP / adenovirus E1A interaction (AlphaScreen); in the data active means activity change below about -65%; inconclusive means about -30% to -65%; inactive means above about -30%; note: % is set by controls: 0 for no effect and ±100 for the full control effect
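Homogeneous bead-based format: GST-tagged E1A captured on glutathione donor beads, His-tagged CtBP on nickel acceptor beads; compounds precede bead addition by 2 h at 37 °C.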
* = called active by the depositor; ? = inconclusive; nt = not tested or not shown; & = joins results of further samples.

SMILES | TRPML1 inh | TRPML1 ag | D2 potentiator | TRPV1 potentiator | Six1-Eya2 blk | CtBP-E1A blk
COC(=O)c1ccccc1NS(C)(=O)=O | -10 | -0.8&-0.6 | -19 | 10 | -3 | 2
CN(/N=C/c1cc(Cl)cc(Cl)c1O)C(=S)NC(C)(C)C | 0 | 0.9 | -2 | -7 | -2 | nt
CC(C)CNC(=O)c1ccccc1N(Cc1ccccc1)S(C)(=O)=O | 12 | 0.0 | -1 | 20 | 5 | 4
CN(C(=O)COC(=O)c1cccc(S(=O)(=O)N2CCCCCC2)c1)C1CCS(=O)(=O)C1 (centres undefined) | 6 | -1.3 | -13 | 2 | -1 | 13
CC(NC(=O)c1ccc(Br)s1)c1ccncc1 (centres undefined) | -6 | 1.1 | -12 | -7 | 14 | -24
CCN(Cc1cc2ccccc2[nH]c1=O)C(=O)c1cccnc1 | 85 | 3.8 | -3 | 1 | -2 | 6
COc1cc(OC)cc(C(=O)Nn2c(C)nc3ccccc3c2=O)c1 | 19 | -0.2 | -16 | 28 | 0 | 0
C=CCc1ccccc1OCC(O)CN1CCN(CCO)CC1 (centres undefined) | -10 | 0.7 | -13 | -7 | 7 | 9
O=C(Nc1cccc(C(=O)N2CCCCC2)c1)c1ccccc1 | -7 | -1.3 | -1 | nt | 4 | 2
CCNc1cc(N2CCN(S(=O)(=O)c3ccc4c(c3)CCCC4)CC2)ccc1[N+](=O)[O-] | -7 | 0.8 | -1 | 14 | -3 | -9
CSC1=NCCN1C(=O)COc1ccc2ccccc2c1 | 9 | -0.8 | -3 | -4 | 2 | 1
COC(=O)c1ccc2nc(-c3ccc(Cl)cc3)c(Cc3ccc(OC)cc3C)n2c1 | nt | -0.1 | nt | nt | 5 | 8
CC1(C)C2CCC1(C)C(OC(=O)CC(=O)O)C2 (centres undefined) | 8 | 0.7 | -11 | 8 | 6 | 15
CCOc1ccc(CCN2C(=O)C(=O)N([C@@H](CC(C)C)CN3CCC[C@H]3CN3C(=O)C(=O)NC[C@@H]3CC(C)C)C[C@@H]2CC(C)C)cc1 | nt | -1.0 | nt | nt | -3 | 2
Cc1[nH]c(=O)[nH]c(=O)c1S(=O)(=O)Nc1cccc(C(F)(F)F)c1 | 23 | 3.3 | 2 | -4 | 5 | 6
Cn1c2ccccc2c(=O)c2c(=O)n(C3CCCCC3)c(-c3ccco3)nc21 | 5 | 11 | -13 | -22 | -2 | -5
Cc1nc(NC(=O)c2ccccc2)sc1-c1csc(N)n1 | 4 | 3.2 | 23 | -4 | -8 | -17
Cc1ccc(C(=O)OCC(=O)Nc2cc(Cl)ccc2C#N)o1 | 16 | -0.2 | -1 | nt | 0 | 4
O=C(Nc1cnccn1)c1cccc(C(F)(F)F)c1 | -9 | -0.3 | -3 | -14 | 3 | 3
COc1ccc(C(=O)c2c(C)oc3ccc(O)c(CN4CCOCC4)c23)cc1 | 0 | -0.2 | -4 | 9 | 0 | -9
CC(C)n1ncc2c(C(=O)N3CCN(S(=O)(=O)c4cccc(F)c4)CC3)cc(C3CC3)nc21 | -3 | -1.0 | -2 | nt | 0 | 13
O=C(O)c1ccc(N=NN2CCOCC2)cc1 | -10 | 0.4 | 9 | 1 | 10 | 3
Cc1occc1C(=O)N1CCN(c2ncccn2)CC1 | -7 | 0.7 | -1 | -5 | 4 | 4
CCCn1c(=O)[nH]c(=O)c2c1nc(-c1cccs1)n2CCOC | -11 | -0.2 | -20 | -16 | -7 | 12
CC(=O)N1CCc2cc(S(=O)(=O)C(C)CC(=O)NCc3ccc(C)o3)ccc21 (centres undefined) | 18 | 0.0 | -6 | -11 | -5 | -4
N#C/C(=C/c1ccc(F)cc1)C(N)=S | -5 | 1.9 | -23 | 0 | -2 | 0
O=C(N/N=C/c1ccccc1)c1cc[n+]([O-])cc1 | 9 | -0.5 | -3 | -7 | 6 | 2
COc1ccc(C)cc1NC(=O)CSc1nnc(-c2ccco2)n1Cc1ccco1 | -4 | 2.9 | -3 | 16 | -13 | -26
COc1cccc(NC(=O)CNS(=O)(=O)c2ccc(Cl)cc2)c1 | -1 | -0.4 | -14 | -6 | 12 | 2
Cc1cc(C(=O)NC2CCCc3ccccc32)no1 (centres undefined) | 22 | 0.8 | -7 | 3 | 4 | 5
Cc1nnc(SCC(=O)Nc2ccc3[nH]c(=O)[nH]c3c2)s1 | 25 | 0.5 | -4 | -3 | 3 | -8
Cc1ccc(NC(=O)CSCCc2ccccn2)nc1 | -21 | 1.6 | -5 | 7 | 0 | -1
CC(=O)Nc1cccc(NC(=O)C2CCCN2C(=O)Nc2ccccc2C)c1 (centres undefined) | -12 | 0.8 | -12 | 2 | 5 | 5
O=C(CCCn1c(=S)[nH]c2ccsc2c1=O)Nc1ccc2c(c1)OCO2 | 15 | -0.8 | -13 | -6 | -12 | 2
Cc1cccc(C)c1OCC(O)CN1CCC(CN2C(=O)c3cccc4cccc(c34)C2=O)CC1 (centres undefined) | 0 | -0.8 | -11 | -3 | -1 | 0
CCc1nnc(NC(=O)CSc2nnc(-c3ccco3)o2)s1 | 52 | 0.0 | -5 | 2 | -22 | -26
O=C(c1cccnc1)N1CCN(C(=O)c2cccs2)CC1 | 10 | 0.3 | -4 | -2 | 1 | 8
Cc1ccccc1-n1c(Cn2c(=O)sc3ccccc32)nnc1SCC(N)=O | 24 | 1.0 | -2 | 7 | 0 | 0
O=C(Nc1cnccn1)C1c2ccccc2Oc2ccccc21 | -7 | 0.4 | -3 | -1 | 3 | 13
CCCc1ccc2oc(C(=O)N3CCC(N4CCCC(O)C4)CC3)c(C)c2c1 (centres undefined) | 10 | -0.7 | 9 | -10 | -2 | -3
CCn1nnnc1SCC(=O)c1cc(OC)ccc1OC | 4 | -0.4 | -12 | -1 | -1 | -3
CCOc1ccc(N2CC(C(=O)Nc3ccc(S(=O)(=O)N4CCOCC4)cc3)CC2=O)cc1 (centres undefined) | -19 | -0.3 | -9 | 6 | -1 | 0
Cc1ccc(C(=O)NCCCNC(=O)Cc2ccccc2)cn1 | -6 | -0.1 | -7 | 8 | -3 | 1
Cc1nc2sc(C(c3ccc(Br)cc3)N3CC(C)OC(C)C3)c(O)n2n1 (centres undefined) | -2 | 2.5 | 2 | -14 | -9 | -2
O=C(COC(=O)C1CCN(S(=O)(=O)c2ccc3c(c2)OCCO3)CC1)Nc1ccc(C(F)(F)F)cc1 | 32 | 2.4 | 2 | -3 | 11 | -10
Cc1ccccc1C(=O)NNC(=S)NC(=O)c1ccccc1 | 1 | ? | -24 | -17 | -4 | -3
CN(CCNC(=O)C1CCN(S(=O)(=O)c2cnc[nH]2)CC1)Cc1ccccc1 | 13 | -0.3 | 5 | -2 | 5 | 4
CCCc1ccc(NC(C)C(=O)Nc2ccc(S(=O)(=O)N3CCOCC3)cc2)cc1 (centres undefined) | 8 | 0.0 | 9 | 5 | -22 | -5
C=CCn1c(C)cc(-c2csc(NC(=O)C3=COCCO3)n2)c1C | 3 | -0.8 | -9 | -1 | -1 | -5
CCN(CC)S(=O)(=O)c1ccc(O)c(C(=O)OCC(=O)N2CCCC2)c1 | -6 | 0.6 | -4 | 4 | 2 | -2
CCc1ccccc1NC(=O)COc1ccc2oc(-c3ccc(OC)cc3)cc(=O)c2c1 | -21 | -1.4 | -3 | 28 | -10 | 0
O=C(C1COc2ccccc2O1)N1CCN(c2ccc(C(F)(F)F)cn2)CC1 (centres undefined) | -24 | 0.8 | -8 | nt | 1 | 4
COc1cccc(C(=O)Nc2nnc(SCC(=O)NC3CCCC3)s2)c1 | -13 | -1.2 | -5 | 6 | 2 | 10
Cc1ccc(C)c(OCCC(=O)N2CCN(S(=O)(=O)c3cc(C)ccc3C)CC2)c1 | 1 | 3.8 | -5 | 8 | 2 | -2
COCCCN(C(=O)c1cc(Cl)nc2ccccc12)c1c(N)n(Cc2ccccc2)c(=O)[nH]c1=O | 17 | 0.4 | -4 | 12 | 4 | -1
COc1ccccc1NC(=O)CSc1nc2sc3c(c2c(=O)n1-c1ccccc1)CCN(C)C3 | -10 | 3.6 | -21 | -12 | -12 | nt
Cc1cc(C)c(NC(=O)c2ccoc2C)c(C)c1 | -9 | -1.4 | 2 | 9 | -1 | 2
CC1(C)CC(=O)C=C(Nc2ccccc2F)C1 | 1 | 0.0 | -13 | 19 | 11 | 2
O=C(COc1ccc(S(=O)(=O)NC2CCCCC2)cc1Cl)NCc1cccnc1 | 11 | -0.5 | 18 | 10 | 10 | -2
O=C(CSc1ncn(-c2ccccc2)n1)Nc1nc2c(s1)CCCC2 | -15 | 0.4 | -8 | 25 | -11 | -3
Additional compounds follow:
SMILES | TRPML1 inh | TRPML1 ag | D2 potentiator | TRPV1 potentiator | Six1-Eya2 blk | CtBP-E1A blk
CC(C)c1ccc2c(c1)C(c1cccs1)=NNC(c1ccncc1)=N2 | -2 | -0.1 | -13 | -13 | -1 | 2
O=S(=O)(/N=C(/c1ccc(F)cc1)N1CCCCC1)c1ccc(Cl)cc1 | 19 | -0.1 | -10 | -14 | 4 | -21
CS(=O)(=O)c1nc(S(=O)(=O)c2ccc(Cl)cc2)c(N2CCCCCC2)s1 | -6 | -1.1 | 0 | -3 | -1 | 2
CC(=O)c1cccc(NC(=O)N2CCCC2C(=O)Nc2ccccc2C)c1 (centres undefined) | 9 | -0.1 | -6 | -9 | 3 | 19
COc1ccccc1CC(=O)NCC1CCCO1 (centres undefined) | -11 | -0.1 | -6 | -24 | 7 | 8
COC(=O)CSc1nc(N)nc(C)c1Br | 2 | 1.3 | -19 | 7 | -3 | -1
COc1ccc(S(=O)(=O)NCCSc2ccccc2)cc1OC | 2 | 0.5 | 1 | 6 | -1 | 9

Of the compounds above, 8 have fluorine.
SMILES | TRPML1 inh | TRPML1 ag | D2 potentiator | TRPV1 potentiator | Six1-Eya2 blk | CtBP-E1A blk
Cc1[nH]c(=O)[nH]c(=O)c1S(=O)(=O)Nc1cccc(C(F)(F)F)c1 | 23 | 3.3 | 2 | -4 | 5 | 6
O=C(Nc1cnccn1)c1cccc(C(F)(F)F)c1 | -9 | -0.3 | -3 | -14 | 3 | 3
CC(C)n1ncc2c(C(=O)N3CCN(S(=O)(=O)c4cccc(F)c4)CC3)cc(C3CC3)nc21 | -3 | -1.0 | -2 | nt | 0 | 13
N#C/C(=C/c1ccc(F)cc1)C(N)=S | -5 | 1.9 | -23 | 0 | -2 | 0
O=C(COC(=O)C1CCN(S(=O)(=O)c2ccc3c(c2)OCCO3)CC1)Nc1ccc(C(F)(F)F)cc1 | 32 | 2.4 | 2 | -3 | 11 | -10
O=C(C1COc2ccccc2O1)N1CCN(c2ccc(C(F)(F)F)cn2)CC1 (centres undefined) | -24 | 0.8 | -8 | nt | 1 | 4
CC1(C)CC(=O)C=C(Nc2ccccc2F)C1 | 1 | 0.0 | -13 | 19 | 11 | 2
O=S(=O)(/N=C(/c1ccc(F)cc1)N1CCCCC1)c1ccc(Cl)cc1 | 19 | -0.1 | -10 | -14 | 4 | -21
